# NOMO-1 viab: STK33 inhibitor candidate reducing NOMO-1 cell viability. NOMO-1 AML viability, CellTiter-Glo luminescence, 72 h. inhibition, % (no concentration beside the values). hit rate 7.5% among 37,000. AID 2330;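 active means most replicates above 80%; inconclusive means exactly half above 80%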;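 further: wells of about 30 µL received 25 nL stock; 0% = median of vehicle wells and 100% = reference inhibitor level; the first replicate is given; inactives centre near 10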
# An asterisk follows results filed as active; ? = inconclusive. This is a subset (hit frequency here may not be typical).
SMILES,NOMO-1 viab
COC(=O)c1ccccc1NC(=O)C1CC(c2cc(Cl)c(OC)cc2OC)=NO1 (stereo unspecified),46
COc1ccc(OC)c(S(=O)(=O)N2CCC(C(=O)Nc3c(C)cc(C)cc3C)CC2)c1,4
Cc1ccc(-c2nnc(SCC(=O)Nc3ccccc3OC(F)F)o2)cc1,34
CNC[C@H]1Oc2c(NC(=O)Nc3c(C)noc3C)cccc2C(=O)N([C@H](C)CO)C[C@H]1C,-4
COC(=O)c1cc2ccccc2[nH]1,27
CN(C)S(=O)(=O)N1CCN(CC(=O)Nc2ccc(F)cc2)CC1,18
C[C@H](CO)N1C[C@H](C)[C@H](CN(C)Cc2ccc(Cl)c(Cl)c2)Oc2c(NC(=O)Nc3ccccc3)cccc2C1=O,68
C[C@@H]1CN([C@H](C)CO)C(=O)c2cc(NC(=O)Cn3cnnn3)ccc2O[C@H]1CN(C)Cc1ccc(C(=O)Nc2ccccc2N)cc1,5
COc1ccc(NC(=O)Nc2ccc3c(c2)C(=O)N([C@H](C)CO)C[C@H](C)[C@H](CN(C)Cc2ccccc2)O3)cc1,26
CCOC(=O)c1c(NC(=O)C2COc3ccccc3O2)sc(C)c1C (stereo unspecified),23
C[C@H](CO)N1C[C@H](C)[C@H](CN(C)S(=O)(=O)c2ccc(Cl)cc2)Oc2c(NC(=O)C3CC3)cccc2C1=O,7
CCOc1ccc(S(=O)(=O)NCC(=O)O)cc1,17
CNC[C@@H]1Oc2ccc(NC(=O)NC3CCCCC3)cc2C(=O)N([C@@H](C)CO)C[C@H]1C,-14
c1ccc(Cn2ccc3ccccc32)cc1,28
Cn1c(N2C(=O)c3cccc4cccc(c34)C2=O)nc2ccccc21,16
C[C@@H]1CN([C@H](C)CO)C(=O)Cc2cc(NC(=O)CCN3CCOCC3)ccc2O[C@H]1CN(C)S(=O)(=O)c1ccccc1,2
Cc1ccc(S(=O)(=O)N(C)C[C@@H]2OCCCC[C@@H](C)Oc3ccc(NC(=O)C4CCCCC4)cc3C(=O)N([C@H](C)CO)C[C@@H]2C)cc1,34
C[C@H]1CN([C@@H](C)CO)C(=O)c2cccc(NC(=O)Nc3ccc(C(F)(F)F)cc3)c2O[C@H]1CN(C)C(=O)Nc1ccccc1,103*
S=c1[nH]nc(CSc2nc(-c3ccccc3)cn2-c2ccccc2)n1-c1ccccc1,2
C[C@@H]1CN([C@@H](C)CO)C(=O)c2cccc(NC(=O)Nc3ccc(C(F)(F)F)cc3)c2O[C@H]1CN(C)S(=O)(=O)c1cn(C)cn1,20

# Among those listed so far, eight have nitrogen in an aromatic ring:
SMILES,NOMO-1 viab
Cc1ccc(-c2nnc(SCC(=O)Nc3ccccc3OC(F)F)o2)cc1,34
CNC[C@H]1Oc2c(NC(=O)Nc3c(C)noc3C)cccc2C(=O)N([C@H](C)CO)C[C@H]1C,-4
COC(=O)c1cc2ccccc2[nH]1,27
C[C@@H]1CN([C@H](C)CO)C(=O)c2cc(NC(=O)Cn3cnnn3)ccc2O[C@H]1CN(C)Cc1ccc(C(=O)Nc2ccccc2N)cc1,5
c1ccc(Cn2ccc3ccccc32)cc1,28
Cn1c(N2C(=O)c3cccc4cccc(c34)C2=O)nc2ccccc21,16
S=c1[nH]nc(CSc2nc(-c3ccccc3)cn2-c2ccccc2)n1-c1ccccc1,2
C[C@@H]1CN([C@@H](C)CO)C(=O)c2cccc(NC(=O)Nc3ccc(C(F)(F)F)cc3)c2O[C@H]1CN(C)S(=O)(=O)c1cn(C)cn1,20

# Looked up one by one from the entries so far, 2 records:
SMILES,NOMO-1 viab
C[C@@H]1CN([C@H](C)CO)C(=O)c2cc(NC(=O)Cn3cnnn3)ccc2O[C@H]1CN(C)Cc1ccc(C(=O)Nc2ccccc2N)cc1,5
CN(C)S(=O)(=O)N1CCN(CC(=O)Nc2ccc(F)cc2)CC1,18

# An excerpt from above in order of count of non-hydrogen atoms, ascending:
SMILES,NOMO-1 viab
c1ccc(Cn2ccc3ccccc32)cc1,28
Cc1ccc(-c2nnc(SCC(=O)Nc3ccccc3OC(F)F)o2)cc1,34
C[C@H]1CN([C@@H](C)CO)C(=O)c2cccc(NC(=O)Nc3ccc(C(F)(F)F)cc3)c2O[C@H]1CN(C)C(=O)Nc1ccccc1,103*

# Next part:
SMILES,NOMO-1 viab
COc1ccc(CN(C)C[C@@H]2Oc3c(NS(=O)(=O)c4ccc(F)cc4)cccc3C(=O)N([C@H](C)CO)C[C@@H]2C)cc1,15
CCOC(=O)c1c(COC(C)=O)n(C)c2cc(Br)c(OC)cc12,46
Cc1cc(C(=O)Nc2cccc3c2O[C@H](CN(C)S(=O)(=O)c2ccc(F)cc2)[C@@H](C)CN([C@H](C)CO)C3=O)n(C)n1,12
CCOC(=O)c1sc(/S(C)=N/S(=O)(=O)c2cccc(Cl)c2)c2c1CCC=C2 (stereo unspecified),14
O=C(NCc1ccccc1)c1ccccc1,4
CCC1(C)C(=O)C=C2C(=COC(C)=C2C)C1O (stereo unspecified),31
C[C@@H]1CN([C@H](C)CO)C(=O)Cc2cc(NC(=O)Cc3ccccc3)ccc2O[C@@H]1CN(C)C,-14
CC(C)NC(=O)N(C)C[C@@H]1Oc2ccc(NS(C)(=O)=O)cc2CC(=O)N([C@H](C)CO)C[C@H]1C,-3
O=C(O)CC(C(=O)OC1CCCCC1)N1CCOCC1 (stereo unspecified),12
C[C@@H]1CN([C@@H](C)CO)C(=O)c2cc(NS(C)(=O)=O)ccc2O[C@H]1CN(C)Cc1ccc(C(=O)Nc2ccccc2N)cc1,27
CC(C)NC(=O)Nc1ccc2c(c1)C(=O)N([C@H](C)CO)C[C@@H](C)[C@@H](CN(C)C(=O)NC1CCCCC1)O2,3
CCN(CC(=O)Nc1ccccc1OC)S(=O)(=O)c1ccc(C)cc1,-7
COC(=O)c1cc(OC)c(OC)cc1NC(=O)COc1ccc(Cl)cc1Cl,48
CC(O)c1cccc(NC(=O)C2C3C=CC(C3)C2C(=O)O)c1 (stereo unspecified),-19
Cc1noc(C)c1NC(=O)Nc1ccc2c(c1)CC(=O)N([C@@H](C)CO)C[C@H](C)[C@@H](CN(C)S(=O)(=O)c1cccs1)O2,1
COc1ccc(S(=O)(=O)Nc2cccc3c2O[C@H](CN(C)S(=O)(=O)c2ccccc2)[C@@H](C)CN([C@@H](C)CO)C3=O)cc1,13
Cc1onc(-c2ccccc2Cl)c1C(=O)NCCc1ccc(S(N)(=O)=O)cc1,-5
COC(=O)c1sc(SC)c(C#N)c1-c1cccc(Cl)c1,13
COc1ccc(S(=O)(=O)N(C)C[C@H]2Oc3ccc(NC(=O)Nc4ccc(C(F)(F)F)cc4)cc3CC(=O)N([C@@H](C)CO)C[C@H]2C)cc1,51
C[C@H](CO)N1C[C@H](C)[C@H](CN(C)C(=O)Nc2ccc(F)cc2)Oc2c(NC(=O)c3cnccn3)cccc2C1=O,-1
CC(C)NC(=O)NCc1c(F)cccc1Cl,17
Cc1ccc(OCC(=O)Nc2cc(-c3nc4cc(C)c(C)cc4o3)ccc2C)cc1,1
CNC[C@@H]1OCCCC[C@@H](C)Oc2ccc(NC(=O)Nc3cccc4ccccc34)cc2C(=O)N([C@H](C)CO)C[C@@H]1C,4
COC(=O)c1c(NC(=O)Cn2cc([N+](=O)[O-])cn2)sc2c1CCCC2,21
O=C(Cn1ccc([N+](=O)[O-])n1)Nc1cccnc1,-6
COc1ccc(S(=O)(=O)N(C)C[C@@H]2Oc3ccc(NC(=O)CCC(F)(F)F)cc3C(=O)N([C@H](C)CO)C[C@H]2C)cc1,23
COc1cccc(C=C2C(=O)c3ccccc3C2=O)c1OC(C)C,104*
C[C@@H]1CCCCO[C@@H](CN(C)C(=O)Cc2ccccc2)[C@@H](C)CN([C@H](C)CO)C(=O)c2cc(NC(=O)NC3CCCCC3)ccc2O1,23
COC(=O)C1=C(C)NC(C)=C(C(=O)OC)C1,72
C[C@@H]1CN([C@@H](C)CO)C(=O)c2cccc(NC(=O)Nc3ccc(F)cc3)c2O[C@@H]1CN(C)Cc1ccc(-c2ccccc2)cc1,99*
Cc1noc(C)c1S(=O)(=O)N(C)C[C@@H]1Oc2ccc(NC(=O)Nc3ccccc3)cc2CC(=O)N([C@@H](C)CO)C[C@@H]1C,30
CCc1ccccc1NC(=O)CSc1nc2ccccc2c(=O)n1-c1ccccc1Cl,-4
COc1ccc(NC(=O)N(C)C[C@H]2Oc3ccc(NC(=O)Cn4cnnn4)cc3C(=O)N([C@@H](C)CO)C[C@@H]2C)cc1,21
CNC[C@@H]1Oc2c(NS(=O)(=O)c3ccccc3)cccc2C(=O)N([C@H](C)CO)C[C@H]1C,5
Nc1nc(Cc2ccc(F)cc2F)no1,0
C[C@@H]1CCCCO[C@H](CN(C)C(=O)c2ccccc2)[C@@H](C)CN([C@H](C)CO)C(=O)c2cc(N(C)C)ccc2O1,-10
C[C@@H]1CN([C@H](C)CO)C(=O)c2cc(NC(=O)Nc3cccc4ccccc34)ccc2O[C@H]1CN(C)C(=O)Nc1ccc(F)cc1,-8
C[C@@H]1CCCCO[C@H](CN(C)C(=O)Nc2ccc(C(F)(F)F)cc2)[C@@H](C)CN([C@H](C)CO)C(=O)c2cc(NC(=O)Nc3ccc(C(F)(F)F)cc3)ccc2O1,39
O=C(CSc1nc2ccccc2c(=O)[nH]1)Nc1ccc(Br)c(Cl)c1,15
Cc1ccc(C(=O)CSc2ncnc3sc4c(c23)CCC4)cc1C,20
Cc1nc(SCc2csc(C)n2)c2c3c(sc2n1)CCCC3,10
Cc1ccc(S(=O)(=O)N(C)C[C@@H]2OCCCC[C@@H](C)Oc3ccc(NS(=O)(=O)c4cccs4)cc3C(=O)N([C@H](C)CO)C[C@@H]2C)cc1,33
C[C@@H]1CN([C@H](C)CO)C(=O)Cc2cc(NC(=O)CCC(F)(F)F)ccc2O[C@H]1CN(C)S(=O)(=O)c1ccc(F)cc1,3
O=C(O)CCc1nn2cnc3sc4c(c3c2nc1=O)CCCC4,39
Cc1cc(NC(=O)C2CC(c3c(F)cccc3Cl)=NO2)n(-c2ccccc2)n1 (stereo unspecified),15
CS(=O)(=O)N(CC(=O)Nc1ccc(Cl)cc1)c1ccc(F)c(Cl)c1,?
C[C@@H]1CN([C@H](C)CO)C(=O)Cc2cc(NC(=O)C3CC3)ccc2O[C@H]1CN(C)Cc1ccc(-c2ccccc2)cc1,6
Cc1ccc([N+](=O)[O-])cc1NC(=O)CSc1nnnn1-c1ccccc1,35
Cc1ccc(-c2nc3ccccc3s2)cc1NC(=O)COc1ccc([N+](=O)[O-])cc1,-21
CCOC(=O)c1c(NC(=O)C(C)n2nc([N+](=O)[O-])c(Br)c2C)sc2c1CCC2 (stereo unspecified),12
Cc1noc(C)c1NC(=O)Nc1cccc2c1O[C@H](CN(C)C(=O)Nc1cccc3ccccc13)[C@H](C)CN([C@@H](C)CO)C2=O,-2
COC(=O)c1c(NC(=O)c2cc3ccccc3oc2=O)sc2c1C(C(=O)OC)CC2 (stereo unspecified),-26
O=C(Nc1ccccc1C(=O)O)c1cc(S(=O)(=O)Nc2cccc(F)c2)ccc1Cl,2
CN1CCC2(CC1)C(C#N)=C(N)Oc1n[nH]c(C(=O)OC(C)(C)C)c12,9
COc1ccc(S(=O)(=O)N(C)C[C@H]2Oc3ccc(NC(=O)Nc4ccccc4)cc3C(=O)N([C@@H](C)CO)C[C@H]2C)cc1,-17
CNC[C@H]1Oc2ccc(NS(=O)(=O)c3ccc(F)cc3)cc2C(=O)N([C@@H](C)CO)C[C@H]1C,0
COc1cc(C2c3c(cc(OC)c(O)c3OC)CC(CO[C@@H]3O[C@H](CO)[C@@H](O)[C@H](O)[C@H]3O)C2CO)cc(OC)c1O (stereo partly specified),-1
C[C@H]1CN([C@@H](C)CO)C(=O)c2cccc(NC(=O)c3nc4ccccc4s3)c2O[C@@H]1CN(C)Cc1ccc(C(=O)O)cc1,-1
COc1ccc(C)cc1S(=O)(=O)N(C)CC(=O)NC1CC1,3
C[C@@H]1CN([C@@H](C)CO)C(=O)c2cccc(NS(=O)(=O)c3ccccc3)c2O[C@H]1CN(C)CC1CC1,-1

# (further entries)
SMILES,NOMO-1 viab
CNC[C@H]1Oc2ccc(NC(=O)Nc3cccc4ccccc34)cc2C(=O)N([C@H](C)CO)C[C@H]1C,-11
C[C@@H]1CN([C@H](C)CO)C(=O)c2cc(NC(=O)Nc3ccc(F)cc3)ccc2O[C@H]1CN(C)C(=O)NC1CCCCC1,-2
CC(Sc1nc2ccccc2[nH]1)C(=O)Nc1cccc(Cl)c1 (stereo unspecified),47
CC(C)NC(=O)Nc1cccc2c1O[C@H](CN(C)C(=O)Nc1ccc(F)cc1)[C@H](C)CN([C@@H](C)CO)C2=O,-22
COc1ccc(NC(=O)CN2c3cccc4cccc(c34)S2(=O)=O)c(OC)c1,16
CNC[C@@H]1Oc2ccc(NC(=O)CCN3CCOCC3)cc2C(=O)N([C@@H](C)CO)C[C@@H]1C,10
CCc1nc2c(cnn2-c2ccccc2)c(=O)n1CCc1ccccc1,113*
C[C@@H]1CN([C@H](C)CO)C(=O)c2cc(NS(=O)(=O)c3ccc(F)cc3)ccc2O[C@H]1CN(C)Cc1ccc2c(c1)OCO2,-6
C[C@@H]1CN([C@H](C)CO)C(=O)c2cccc(NC(=O)c3cnccn3)c2O[C@@H]1CN(C)Cc1ccc(Oc2ccccc2)cc1,26
COc1cc(/C=C2\Oc3cc(O)cc(O)c3C2=O)ccc1O,14
COc1cc(OC)cc(-c2nnc(SCC(=O)Nc3cccc(Cl)c3Cl)o2)c1,31
C[C@@H]1CN([C@H](C)CO)C(=O)c2cc(NS(=O)(=O)c3ccc(Cl)cc3)ccc2O[C@H]1CN(C)C(=O)NC1CCCCC1,-9
CC(C)NC(=O)N(C)C[C@H]1Oc2c(NC(=O)NC3CCCCC3)cccc2C(=O)N([C@@H](C)CO)C[C@H]1C,5
CS/C(Nc1cccc(Cl)c1Cl)=C(/C#N)C(=O)c1cccs1,94*
CCc1ccc(CCC(=O)Nc2ccc(I)cc2)o1,11
Cc1cc(S(=O)(=O)NC2CCCCC2)ccc1OCC(=O)O,-16
COc1cccc(NC(=O)C(C)NS(=O)(=O)c2ccc(Br)cc2)c1 (stereo unspecified),-4
C[C@@H]1CN([C@H](C)CO)C(=O)Cc2cc(NS(=O)(=O)c3ccc(Cl)cc3)ccc2O[C@@H]1CN(C)CC1CC1,-12
